Assay outcomes: PubChem, National Center for Advancing Translational Sciences (NCATS)
CtBP-E1A inh – qHTS Assay for Inhibitors of the CtBP/E1A Interaction. CtBP / adenovirus E1A interaction (AlphaScreen). AID 651724, 2012. activity change, % (test concentration not listed). AlphaScreen GST-E1A/His-CtBP binding, 1536-well; stronger effect = lower value; control for the full effect not named in the record. 340,000 tested, 0.49% active; in the data active means activity change below about -65%; inconclusive means about -30% to -65%; inactive means above about -30%; also: % is scaled to controls: 0 for no effect and ±100 for the full control effect; compound concentration not given in the record
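AlphaScreen with 125 nM GST-E1A and 125 nM His-CtBP (5X stocks) in Tris pH 8.0, 300 mM NaCl, BSA, Tween 20, TCEP. Compounds preincubated 2 h at 37 deg C, then glutathione donor/nickel acceptor beads added for 1 h at 37 deg C in dark.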
TRPML1 blocker – qHTS for Inhibitors of the Human Mucolipin Transient Receptor Potential 1 (TRPML1); Mucolipin-1 (Homo sapiens), Q9GZU1; TRPML1-inducible cells, Ca2+ dye fluorescence, FDSS; stronger effect = lower value; inhibition of EC80 agonist-evoked calcium signal; activity change, negative = inhibition, % (no concentration beside the values); 390,000 tested, 0.02% active; AID 624415, 2012; in the data active means activity change below about -50%; inconclusive means about -30% to -50%; inactive means above about -30%;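 also: stimulus is agonist 54-4 at its EC80 concentration; % is scaled to controls: 0 for no effect and ±100 for the full control effect; compound concentration not given in the record; the text of the record puts the active cut at -80%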
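TRPML1-DL cells, Tet-induced overnight (~16 h, 37 °C) at 1,500 cells/well, were loaded with Ca8 no-wash dye plus quencher for 45-90 min at room temperature. Compounds were pinned during FDSS kinetic reading; agonist 54-4 at EC80 (4 uM final) then added.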
TRPV1 potentiator – HTS Assay for Compounds that Act as Potentiators of the Vanilloid Receptor 1; Transient receptor potential cation channel subfamily V member 1 (Homo sapiens), Q8NER1; TRPV1-expressing cells, Fluo-8 calcium influx, capsaicin EC20 potentiation; host cell line not named in the record; control for the full effect not named in the record; 320,000 tested, 0.02% active; potentiation, % at 8.33 µM; active means potentiation above 80%; inconclusive means 30% to 80%; inactive means below 30%; also: 0% is about no effect
Target sequence (Q8NER1 whole entry, looked up): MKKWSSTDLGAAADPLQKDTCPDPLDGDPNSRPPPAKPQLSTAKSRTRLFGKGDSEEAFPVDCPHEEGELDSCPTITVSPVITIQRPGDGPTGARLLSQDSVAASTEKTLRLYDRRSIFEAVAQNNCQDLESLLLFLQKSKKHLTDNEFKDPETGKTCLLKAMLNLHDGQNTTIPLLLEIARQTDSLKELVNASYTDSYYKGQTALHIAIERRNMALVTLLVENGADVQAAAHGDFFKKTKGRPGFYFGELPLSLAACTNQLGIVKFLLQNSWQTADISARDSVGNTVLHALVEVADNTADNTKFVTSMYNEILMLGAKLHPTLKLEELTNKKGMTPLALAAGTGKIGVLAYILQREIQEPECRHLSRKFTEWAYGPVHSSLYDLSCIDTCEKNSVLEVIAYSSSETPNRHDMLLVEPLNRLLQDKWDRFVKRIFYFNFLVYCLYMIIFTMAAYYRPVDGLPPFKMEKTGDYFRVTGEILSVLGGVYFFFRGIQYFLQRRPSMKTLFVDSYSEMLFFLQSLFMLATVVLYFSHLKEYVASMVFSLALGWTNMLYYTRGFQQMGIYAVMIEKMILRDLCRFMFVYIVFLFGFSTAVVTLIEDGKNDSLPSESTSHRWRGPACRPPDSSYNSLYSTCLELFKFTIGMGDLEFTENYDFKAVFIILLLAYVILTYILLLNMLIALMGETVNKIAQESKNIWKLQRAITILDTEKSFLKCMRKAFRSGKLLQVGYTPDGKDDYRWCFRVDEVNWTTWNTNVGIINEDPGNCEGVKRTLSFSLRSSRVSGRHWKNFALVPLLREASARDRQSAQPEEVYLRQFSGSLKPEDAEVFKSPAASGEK
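Cells expressing TRPV1 were dye-loaded with Fluo-8 and read kinetically: 10 s baseline, 3 min after compound (agonist portion), then 2 min after EC20 capsaicin (allosteric enhancer portion). Calcium-bound dye fluorescence at 480/520 nm.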
D2 PAM – Beta-Arrestin HTS for Positive Allosteric Modulators of the Human D2 Dopamine Receptor: Potentiators; DiscoveRx D2 beta-arrestin cells, luminescence, 90 min; 100% = 57 uM dopamine signal; potentiation, % (concentration not given with the values); 360,000 tested, 0.23% active; AID 624464, 2012; active = potentiation of 50% or more; inconclusive = 30% to 50%; inactive = 30% or less;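 also: compound concentration not given in the record; tested on top of an EC20 dose of dopamine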
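PathHunter beta-arrestin assay in DiscoveRx D2 cells. Compounds were added with an EC20 of dopamine (50 nM final) for 90 min at 37 deg C. Luminescence was read 1 h after detection reagent, with 57 uM dopamine as the EC100 control.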
Six1-Eya2 inh – qHTS Assay for Inhibitors of the Six1/Eya2 Interaction. Homeobox protein SIX1 (Homo sapiens) + Protein phosphatase EYA2 (Homo sapiens), …. AlphaScreen GST-Six1/His-Eya2 binding, biochemical; stronger effect = lower value; control for the full effect not named in the record. activity change, % (no concentration beside the values). 360,000 tested, 0.56% active. AID 651725, 2012; in the data active = activity change below about -65%; inconclusive = about -30% to -65%; inactive = above about -30%; also: % is scaled to controls: 0 for no effect and ±100 for the full control effect; compound concentration not given in the record
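Six1/Eya2 binding was read as AlphaScreen signal after compounds were pinned into GST-Six1 plus His-tagged Eya2 (5X stock 250/500 nM) in pH 8.0 Tris/NaCl/TCEP buffer, beads added, then incubated 1 h, 37 C, dark.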
TRPML1 ag – qHTS for Agonists of the Human Mucolipin Transient Receptor Potential 1 (TRPML1); Mucolipin-1 (Homo sapiens), Q9GZU1; TRPML1-expressing cells, Ca2+ dye fluorescence, FDSS; host cell line not named in the record; reference of the full effect not given here; activation, % (concentration not given with the values); 410,000 tested, 0.12% active; AID 624414, 2012; in the data active = activation above about 50%; inconclusive = about 30% to 50%; inactive = below about 30%; also: 0% is about no effect; the text of the record puts the active cut at 80%
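Kinetic FDSS Ca2+ read in Tet-induced TRPML1-DL cells (ABD Ca8 dye plus quencher, 45-90 min RT loading): baseline, then compound, then 110 s agonist window; EC80 agonist 54-4 at 4uM final added afterwards for a 110 s antagonist window.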
* = called active by the depositor; ? = inconclusive; / = not tested or not shown.

SMILES	CtBP-E1A inh	TRPML1 blocker	TRPV1 potentiator	D2 PAM	Six1-Eya2 inh	TRPML1 ag
O=C(COC(=O)c1ccccn1)Nc1cccc(Cl)c1	-5	-7	3	-7	-1	0.8
Cc1ccc(S(=O)(=O)N2CCCCC2)cc1C(=O)N(C)CCOc1ccccc1	2	14	-8	-6	-6	-0.3
CC(C(=O)N1CCc2ccccc21)N1CCN(c2cccc(C(F)(F)F)c2)CC1 (stereo unspecified)	-9	12	-5	-12	-15	1.9
CCN(CC(=O)NCc1ccc(Cl)cc1)C(=O)CSc1ccc(Br)cc1	4	-14	-2	-25	4	-0.1
Cc1cccc(OCc2nnc(SCC(=O)OC3CCCCC3)o2)c1	50	-3	-3	-18	45	2.5
CC(C)CCN1C(=O)c2ccc(C(=O)OCC(=O)N(CC(C)C)C3CCS(=O)(=O)C3)cc2C1=O (stereo unspecified)	0	-2	/	3	-12	0.5
COCCNC(=O)Cn1cc(C(=O)c2cccs2)c2ccccc21	2	3	/	-7	5	0.4
COc1ccc(CNC(=O)C2CCCN2S(=O)(=O)c2ccc(Cl)cc2)cc1 (stereo unspecified)	13	-5	8	-3	2	-0.4
CC(C)OCCCNCC(O)c1ccccc1 (stereo unspecified)	-7	7	2	-11	8	0.9
COc1cc(/C=N\NC(=O)C(C)(C)O)ccc1OC/C=C/c1ccccc1	0	-16	-25	1	1	-0.1
CC1CCN(CC(=O)Nc2ccccc2Sc2ccccc2)CC1	22	0	2	-15	22	15
COc1ccc(C(=O)Nc2ccnn2C2CCN(C(=O)c3cc(C)on3)CC2)cc1	2	10	4	-6	2	-0.1
CC(C)C(C(=O)Nc1nccs1)c1ccc(Cl)cc1 (stereo unspecified)	3	33	16	-5	1	3.1
Cc1ccc(-c2nc(N)sc2CC(=O)OCC(=O)NC2CCCC(C)C2C)cc1 (stereo unspecified)	-9	-9	-4	1	-6	0.0
COc1ccc(OC)c(CNC(=O)C2CCCN(S(=O)(=O)N3CC(C)CC(C)C3)C2)c1 (stereo unspecified)	-10	-2	-3	-10	-1	-0.9
Cc1c(Cl)cccc1NC(=S)NCc1cccs1	1	0	-2	-3	5	0.5
Cc1ccc(S(=O)(=O)N2CCN(C(=O)CSc3ccc(F)cc3)CC2)cc1	4	17	5	-1	17	1.0
Cc1ccc(/C=N/NC(=O)CSc2nnc(-c3ccc(Cl)cc3)n2-c2ccccc2)o1	-14	20	7	88*	-5	3.6
COc1ccc(NC(=O)N(O)C2(C#N)CCCCC2)cc1	-4	6	/	-2	7	-0.5
O=C(COc1nsnc1N1CCOCC1)N1CCOCC1	-14	10	1	-9	0	-0.1
Cc1cc2ccccn2c1C(=O)Nc1cccc(Cl)c1	0	2	0	3	5	2.3
Cn1c(=O)[nH]c(=O)c2[nH]c(CO)nc21	2	32	/	-2	0	-0.3
COc1ccccc1-c1noc(-c2cccs2)n1	10	7	23	-9	6	0.6
Cc1ccc(C23CC4CC(CC(CC(=O)NC(C)(C)CO)(C4)C2)C3)cc1	/	8	-11	-9	-1	-0.4
CC(=O)Nc1ccc(NC(=O)C(C)OC(=O)C(C)SCC(=O)Nc2ccc(C)cc2)cc1 (stereo unspecified)	0	5	-13	22	0	-0.5
CCOc1ccc(CN(C)C(=O)CNC(=O)c2ccc3ccccc3c2)cc1OC	13	1	-5	-7	-1	-2.0
Cc1c(Cl)cccc1NC(=O)CC1Sc2ccccc2NC1=O (stereo unspecified)	/	-1	-8	13	3	2.8
COc1ccc(CNC(=O)C2(c3ccc(Cl)cc3)CC2)cc1	0	9	-15	-8	1	2.2
CCOC(=O)c1ccc(NC(=O)CC2S/C(=N/N=C/c3c[nH]c4ccccc34)NC2=O)cc1 (stereo unspecified)	-14	4	17	10	-9	-0.6
CNC(C)c1cc(OC)ccc1OC (stereo unspecified)	-13	-9	-5	-5	0	1.7
CC(=O)c1sc(NC(=O)CCCc2nc3ccccc3c(=O)[nH]2)nc1-c1ccccc1	/	-17	16	-7	-1	-1.3
Cc1noc(C)c1NC(=O)Nc1ccc2c(c1)C(=O)N([C@H](C)CO)C[C@H](C)[C@@H](CN(C)S(=O)(=O)c1ccccc1)O2	2	-8	/	-16	-3	-0.4
COC(=O)c1ccc(-c2nn(C)c(=O)c3ccccc23)cc1	?	40	2	-6	?	-0.7
S=c1[nH]nc(COc2ccc(Cl)cc2Cl)n1-c1ccccc1	-14	7	4	-3	-3	1.0
COCCCn1c(Cc2ccccc2)nnc1SCC(=O)N1CCCCC1	47	-20	15	3	4	-0.1
Cc1oc2c(C)c3oc(=O)c4c(c3cc2c1C)CCC4	9	-8	-1	19	1	0.5
Cc1ccc(C(=O)NCC(=O)NCc2ccc(Cl)cc2)s1	4	-1	/	-10	6	-0.6
COc1ccc(C(=O)NC(=S)N2CCN(c3ccccc3OC)CC2)cc1	-15	10	5	-14	-20	3.4
CCOC(=O)Cn1c(=N)n(CCOc2ccc(Br)cc2)c2ccccc21	1	5	-2	-7	-1	0.0
Cc1ccc(NC(=S)NCC2CCN(C(C)c3ccccc3)C2)cc1C (stereo unspecified)	-2	1	-1	-23	-13	0.0
O=C(NC1CCCN(Cc2ccc(Cl)cc2)C1)c1ccnc(Cl)c1 (stereo unspecified)	-1	17	-2	-15	0	-0.4
CCOC(=O)c1cnc2c(C)c(Cl)ccc2c1N1CCOCC1	6	-20	/	-7	6	-1.0
S=C(NCc1ccncc1)Nc1cccc(Cl)c1	8	-14	-7	-8	8	-0.3
Cc1cccc(C)c1NC(=S)NN1CCN(C)CC1	8	7	3	8	3	0.5
O=C(O/N=C\c1ccc(N2CCCCC2)c([N+](=O)[O-])c1)c1cccc(C(F)(F)F)c1	-9	-11	-5	13	1	29
COCCn1c(=S)[nH]c2cc(C(=O)NCc3ccc(F)cc3)ccc2c1=O	6	-12	/	-7	2	1.2
CCOC(=O)Cn1c(CN2CCN(C(c3ccccc3)c3ccccc3)CC2)nc2c1c(=O)n(C)c(=O)n2C	-21	-8	-5	-5	-6	1.6
CCN1C(=O)[C@@H]2[C@@H](c3ccc(-c4ccc(OC)cc4)cc3)N3CCCC[C@@]3(C(=O)OC)[C@@H]2C1=O	-10	24	-20	-5	-8	1.0
Cc1cccc(N2CCN(C(=O)c3ccc(Cl)c(NC4=NC5CS(=O)(=O)CC5S4)c3)CC2C)c1 (stereo unspecified)	2	-4	9	23	-1	0.3
O=C(Nc1ccc(-n2ccnc2P(=O)(O)c2ccccc2)cc1)c1ccccc1Br	-9	-1	5	4	1	-0.1
COc1cccc(Oc2ccc(N/C=C/C(=O)C(C)(C)C)cc2)c1	-21	2	-11	-7	-13	3.4
COc1ccc(NC(=O)CS(=O)CC(=O)Nc2ccc(OC)c(OC)c2)cc1 (stereo unspecified)	-1	-5	/	-8	3	-0.2
N#CCCN(Cc1cccnc1)C(=S)NC1CC2C=CC1C2 (stereo unspecified)	8	-7	2	-2	4	0.8
Cc1ccc(C(=O)N2CC(=O)NC(=O)C2)cc1	1	-1	0	-1	12	-0.4
Cc1cccc(SCc2noc(C(=O)NC(C)C)c2C(=O)O)c1	5	5	4	-5	2	-0.8
Clc1ccc(Cn2c(-c3cccnc3Cl)nc3ccccc32)c(Cl)c1	12	-1	-3	-10	-3	2.1
CC(C)(C)C1CCN2CCC[C@](c3ccccc3)(C1)C2OCCCO (stereo partly specified)	-4	/	/	/	-10	-0.9
CN(C)CCCNc1ncnc2scc(-c3ccccc3)c12	-7	2	4	-10	15	-0.9
Nc1cc2sc(-c3ccc(C(=O)O)cc3)nc2cc1Cl	3	4	?	22	-18	5.6
CN(CCN1CCOCC1)C(=O)CC1C(=O)NCCN1Cc1ccccc1C(F)(F)F (stereo unspecified)	2	-10	8	-5	4	-0.9

Single values from the list:
Six1-Eya2 inh result of COc1ccc(NC(=O)CS(=O)CC(=O)Nc2ccc(OC)c(OC)c2)cc1 (stereo unspecified) stands at 3
CtBP-E1A inh result of Cc1cccc(SCc2noc(C(=O)NC(C)C)c2C(=O)O)c1 stands at 5

Entries listed above marked active in D2 PAM.
structure | CtBP-E1A inh | TRPML1 blocker | D2 PAM | Six1-Eya2 inh
Cc1ccc(/C=N/NC(=O)CSc2nnc(-c3ccc(Cl)cc3)n2-c2ccccc2)o1 | -14 | 20 | 88* | -5

Remaining list, next part.
SMILES	CtBP-E1A inh	TRPML1 blocker	TRPV1 potentiator	D2 PAM	Six1-Eya2 inh	TRPML1 ag
Cc1ccc(OCCN2C(=O)OC(C)(C)C2(C)O)cc1 (stereo unspecified)	-13	-7	-17	-15	-8	0.3
CCCn1c(SCC(=O)Nc2ccc(S(=O)(=O)N3CCOCC3)cc2)n[nH]c1=O	0	-4	/	-11	0	-0.4
CCOC(=O)c1c(NC(=O)Cc2ccccc2)sc2c1CC(C)(C)NC2(C)C	-1	-3	30	6	3	-0.1
Cc1ccc(NC(=O)CSc2nc3c(c(=O)[nH]2)CCC3)cc1C	-2	-5	-13	-10	1	1.8
OC(COc1ccc(CNCCc2ccc(C(F)(F)F)cc2)cc1)CN1CCCCC1 (stereo unspecified)	-15	8	-21	-18	-2	1.0
COc1cccc(NC(=O)CN(C2=NC3CS(=O)(=O)CC3S2)c2cccc(C)c2)c1 (stereo unspecified)	2	-6	8	-7	0	0.0
Cc1ccc(Cn2c(SCC(=O)N(C)C3CCS(=O)(=O)C3)nc3ccccc3c2=O)cc1 (stereo unspecified)	-3	-7	5	1	1	-0.2
COc1ccc(OC)c(NC(=O)C(=O)N/N=C/c2ccccc2[N+](=O)[O-])c1	8	-5	-2	-2	0	1.0
CC(C)CCn1nnnc1C(c1ccccc1)N1CCC(C(N)=O)CC1 (stereo unspecified)	8	2	-11	7	10	1.9
COc1ccccc1N1C(=O)CC(Sc2ccccc2N)C1=O (stereo unspecified)	/	-7	30	6	0	-0.3
C/C(=N\Nc1nc(Cl)c(Cl)cc1Cl)c1ccc(S(=O)(=O)NCc2ccco2)cc1	-6	4	-9	-8	-19	3.2
CCCNc1c(NS(=O)(=O)c2ccc(C)cc2C)c(=O)oc2ccccc12	0	-8	-16	5	-1	1.2

A draw from above in order of molar mass, low to high:
SMILES	CtBP-E1A inh	TRPML1 blocker	TRPV1 potentiator	D2 PAM	Six1-Eya2 inh	TRPML1 ag
Cc1ccc(NC(=O)CSc2nc3c(c(=O)[nH]2)CCC3)cc1C	-2	-5	-13	-10	1	1.8
COc1ccc(OC)c(NC(=O)C(=O)N/N=C/c2ccccc2[N+](=O)[O-])c1	8	-5	-2	-2	0	1.0
CCCn1c(SCC(=O)Nc2ccc(S(=O)(=O)N3CCOCC3)cc2)n[nH]c1=O	0	-4	/	-11	0	-0.4
